Source: PubChem (ICCB-Longwood Screening Facility, Harvard Medical School)
Ba CapD inh: blocks the Bacillus anthracis CapD enzyme; purified CapD enzyme, fluorescence intensity read-out; hits give low values; some hits fall short of the stated cut; z-score (no concentration beside the values); hit rate 0.23% among 140,000;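 active = z-score under -4 in either of two replicates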;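 note: stock transfer was 100 nL into about 40 µL; score is relative to mean and spread of the plate; one replicate is shown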
AID504770: E. coli YBA685 growth inhibition, screen for V. cholerae RctB inhibitors; E. coli YBA685 rctB-dependent plasmid, OD600 growth, 3 h; hits give low values; z-score (concentration not given with the values); hit rate 0.27% among 130,000;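 active = z-score under -2 on both plates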;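 note: wells of about 30 µL received 100 nL stock; score is relative to mean and SD of the test wells; the first replicate is given; strong numbers were not always called active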
The depositor's hits bear a star; i = inactive; . = no result given; & = joins results of further samples.

SMILES	Ba CapD inh	AID504770
CNC(=O)NC(=O)C(Sc1nnnn1C1CC1)c1ccccc1 (stereo not given)	.	1.7
O=C(CSc1nc(=O)n2ccccc2n1)NCc1ccccc1	.	-0.8
O=C(C1CC1)N1CCN(c2ncccn2)CC1	0.3	-0.1
CC(C)Cn1c(=S)[nH]c2scc(-c3cccs3)c2c1=O	.	0
Cc1ccc(-c2[nH]ncc2CNCc2ccccc2)cc1C	-0.045	-0.8
COc1ccc(-c2nc(N)sc2C)cc1	-0.29&0.75	-0.15&-0.6
CC1N=C2c3ccccc3N=C(SCC(=O)c3ccc(O)c(O)c3)N2C1=O (stereo not given)	-1.7	2.4
CCOC(=O)c1ccc(NC(=S)Nc2ncccc2C)cc1	-0.52	.
Cc1cc(-c2csc(/N=C/N(C)C)n2)c(C)n1-c1ccc(F)cc1	.	0.95
Cc1ccc(Nc2nc3ccccc3nc2Nc2c(C)n(C)n(-c3ccccc3)c2=O)cc1	.	0.85
O=C(O)Cn1nnc(COc2ccccc2)n1	.	1
CC(C)CNC(=O)C1CCCN1C(=O)Nc1ccccc1 (stereo not given)	.	2.4
C=CCOc1ccc2c3c(c(=O)oc2c1)CCCC3	20	.
Brc1cnc(N2CCCC2)nc1	-0.2	-1.3
O=C(O)c1ccc(N2C(=O)/C(=C/c3ccc(-c4ccc([N+](=O)[O-])cc4)o3)C=C2c2ccccc2)cc1	-0.81	.
Cc1cc(C(=O)CSc2nnc(-c3ccco3)n2C)c(C)n1C1CC1	.	2.6
CC1C(=O)Nc2ccccc2N1C(=O)c1ccccc1 (stereo not given)	-0.21	-0.6
CC1Cc2cc(CSC(=N)N)ccc2O1 (stereo not given)	.	-1
CC(NC(=O)OCCCCc1ccc([N+](=O)[O-])cc1)C(=O)Nc1ccc2ccccc2c1 (stereo not given)	-0.52	.
COC(=O)Nc1c(-c2ccccc2)nc2ccc(Cl)cn12	3	.
O=C(NNc1ccccn1)Nc1ccc(Cl)cc1	0.26	0.3
O=C(Nn1c(=S)[nH]c2ccccc2c1=O)c1ccco1	-0.45	-0.6
CC1(C)c2ccccc2N2CC(=O)N(Cc3ccccc3)C21/C=C/c1ccc(F)cc1 (stereo not given)	-0.33	.
O=C(COC(=O)Cc1n[nH]c(=O)c2ccccc12)NCC1CCCO1 (stereo not given)	.	-0.8
CCc1ccc(C2Nc3ccccc3C(=O)N2c2ccc(N(C)C)cc2)cc1 (stereo not given)	17	0.75
Cc1ccc(C(=O)Nc2ccc(C(=O)N3CCCCC3)cc2)o1	-0.55	1.8
COc1ccccc1CNCc1ccccc1	0.16	0.5
Cc1cc(=O)[nH]c(/N=C(\N)Nc2ccccc2)n1	0.97	0.85
CN1CCN(c2ccccc2NC(=O)c2ccc(Br)o2)CC1	0.55	-0.3
Cc1ccccc1Cn1c(-c2cncs2)nc2ccccc21	3.1	-0.3
CC(C)CSc1nc(-c2ccco2)c(C#N)c(=O)[nH]1	.	-0.35
Cn1c(N)c(C(=O)NCc2ccccc2)c2nc3ccccc3nc21	47	0.9
CSCCC(C(=O)Nc1ccc2c(c1)OCCO2)N1Cc2ccccc2C1=O (stereo not given)	-0.21	-0.55
CSc1ccc(-c2nnc(NC(=O)/C=C/c3cccs3)o2)cc1	.	-1.4
CSc1ccccc1NC1=NS(=O)(=O)c2ccccc21	-1.1	-0.55
Cc1ccn2c(NC(=O)c3cccc([N+](=O)[O-])c3)c(-c3ccccc3)nc2c1	0.69	.
COC(=O)c1sccc1NNS(=O)(=O)c1ccccc1	-0.24	-1.1
C=CCNc1sc(C(=O)OC)c(N)c1C(=O)OC	-0.44	.
CCN(CC)CC(O)Cn1c(=O)n(CC(O)CN(CC)CC)c(=O)n(CC(O)CN(CC)CC)c1=O (stereo not given)	0.34	-0.9
O=C(Cc1n[nH]c(=O)c2ccccc12)OCCCn1c(=O)[nH]c2ccccc21	.	2.3
O=C(Nc1ccc(-c2csnn2)cc1)C1CC1	-0.15	0.2
N#CCc1ccc(NC(=O)CC(CC(=O)O)c2ccccc2)cc1 (stereo not given)	0.67	-0.15
O=C(Nc1ccc(N2CCN(c3ccccc3)CC2)c(F)c1)c1ccc(F)cc1	0.02	.
CC(=O)NC(=S)Nc1ccc(S(=O)(=O)N2CCOCC2)cc1	-0.54	-0.6
CCN(CC)C(=O)Cn1cc(/C=C(\C#N)C(N)=O)c2ccccc21	.	0
CC(C)(C)C1CCc2nc(N)c3c(=O)oc4ccccc4c3c2C1 (stereo not given)	0.22	-0.55
CNC(=S)N(Cc1ccc(OC)cc1OC)c1ccc(C(C)(C)C)cc1	-0.43	0.55
CC1CCN(Cc2ccc(NC(=O)Nc3cccs3)cc2)CC1	0.31	0.3

Overlap with the part before: five compounds, then new ones.
SMILES	Ba CapD inh	AID504770
CC(=O)NC(=S)Nc1ccc(S(=O)(=O)N2CCOCC2)cc1	-0.54	-0.6
CCN(CC)C(=O)Cn1cc(/C=C(\C#N)C(N)=O)c2ccccc21	.	0
CC(C)(C)C1CCc2nc(N)c3c(=O)oc4ccccc4c3c2C1 (stereo not given)	0.22	-0.55
CNC(=S)N(Cc1ccc(OC)cc1OC)c1ccc(C(C)(C)C)cc1	-0.43	0.55
CC1CCN(Cc2ccc(NC(=O)Nc3cccs3)cc2)CC1	0.31	0.3
CCOC(=O)c1c(CSc2nc(CC(C)C)ccc2C#N)n(C)c2cc(Br)c(OC(C)=O)cc12	0.095	.
CN(C)c1ccc(/C=C(\NC(=O)c2ccccc2)C(=O)NCc2ccco2)cc1	-0.6	-0.45
CCN(CC)Cc1c(C(=O)OC(C)C)nnn1-c1nonc1N	-0.18	.
COc1ccc(C2=NN3C(C2)c2cc(Cl)ccc2OC3c2ccc(OC)cc2)cc1 (stereo not given)	0.85	.
CC(C)CCCC(C)C1CCC2C3CC=C4CC(OC(=O)CCCl)CCC4(C)C3CCC12C (stereo not given)	-0.16	.
CCOC(=O)c1[nH]c2ccc(OC)cc2c1N=C(C)N(C)C	-0.03	0.1
CN1CCCN(S(=O)(=O)c2cccc3nonc23)CC1	0.36	.
CN1CCN(C(=O)C2=C(N)C(C(=O)Nc3ccccc3Br)SC2=NCc2ccccc2)CC1 (stereo not given)	.	-0.4
Cc1nn(CCCC(=O)NC2CCCc3ccccc32)c(=O)c2cc3sccc3n12 (stereo not given)	-0.65	1.6
C#CCN1CCC2=C(C1)c1c(O)cc(C(C)CCc3ccc(F)cc3)cc1OC2(C)C (stereo not given)	0.05	.
CC1=CCC2(CO)COC(c3ccccc3O)C1C2 (stereo not given)	.	0
c1cc2c(cc1C1NN=C3C4CCN(CC4)C31)OCO2 (stereo not given)	-0.11	.
C=CCNC(=O)c1ccccc1OCc1ccccc1	-0.35	-1.2
CCOC(=O)C1=C(C)N=c2s/c(=C/c3cccc([N+](=O)[O-])c3O)c(=O)n2C1c1cccc(OC)c1 (stereo not given)	-1.2	.
COc1ccc(-c2cc(C(F)(F)F)n3nc(C)cc3n2)cc1	85	.
COc1ccccc1C(=O)N1CCNCC1	-0.48	1.9
CCc1cc(=O)oc2cc3occ(C(C)(C)C)c3cc12	2.5	0.25
Cc1ccc(Cl)cc1NCN1C(=O)/C(=C/c2ccc(Br)cc2)NC1=S	-3.2	-0.25
Cc1csc(=NCC(=O)NCc2ccccc2)n1CC(=O)NCc1ccccc1	.	0.35
O=C(COC(=O)c1ccc(Cl)nc1)NCc1ccccc1Cl	.	-0.4
CCn1cc2nc(SCC(=O)NC3CCCCC3)n(Cc3ccc(OC)cc3)c(=O)c2n1	-0.07	-0.35
CN(C(=O)COc1ccccc1)C1CCS(=O)(=O)C1 (stereo not given)	.	-0.55
CCCN(CCC)c1sc(S(C)(=O)=O)nc1S(=O)(=O)c1ccc(C)cc1	-0.96	0.6
CC(=O)N1CCc2cc(S(=O)(=O)NCCC(=O)N3CCc4ccccc43)ccc21	0.45	0.45

Molecules shown so far with a tert-butyl group (three):
SMILES	Ba CapD inh	AID504770
CC(C)(C)C1CCc2nc(N)c3c(=O)oc4ccccc4c3c2C1 (stereo not given)	0.22	-0.55
CNC(=S)N(Cc1ccc(OC)cc1OC)c1ccc(C(C)(C)C)cc1	-0.43	0.55
CCc1cc(=O)oc2cc3occ(C(C)(C)C)c3cc12	2.5	0.25

Next section
SMILES	Ba CapD inh	AID504770
Cc1ccn2c(-c3nnco3)c(C)nc2c1	16	-1.2
CC1(C)C2CCC1(CS(=O)(=O)Nc1ccc(Cl)cc1)C(=O)C2 (stereo not given)	-0.21	1.7
COc1ccc(C2C3=C(CC(C)(C)CC3=O)Nc3ccccc3N2C(=O)Cc2ccccc2)cc1OC (stereo not given)	2.7	.
Cc1nc(NS(=O)(=O)c2ccccc2)sc1NC(=O)OCCOc1nc(N(C)C)nc(N(C)C)n1	-0.34	-0.5
CCOC(=O)COc1ccc2c(c1)C(=O)CC(C)(c1cccnc1)O2 (stereo not given)	92	0
N#CC1=C(N)Oc2nc[nH]c(=O)c2C1c1ccccc1Cl (stereo not given)	-0.17	0.9
COc1ccccc1NC(=O)Cn1cnc2sc(C(=O)N3CCN(c4ccccc4)CC3)c(C)c2c1=O	-0.3	.
O=C(Nc1ccc(F)cc1F)N1CCN(Cc2ccccc2)CC1	-0.065	-0.75
COC(=O)c1sccc1NC(=O)CSCC(=O)O	-0.79	.
NNc1nc2ccccc2o1	0.005	0.75
Cc1ccc2onc(CNC(=O)N3CCN(C)CC3)c2c1	-0.49	-0.1
O=C(O)C(Cc1ccccc1)P(=O)(O)CN1CCOCC1 (stereo not given)	0.11	0.15
COc1ccc(-n2ncc3c(NCCc4ccccc4)ncnc32)cc1	-0.36	1.1
CCOC(=O)C1=C(O)c2ccccc2C1=O	0.15	0.45
O=c1[nH]c2ccccc2n1CN1CCc2ccccc2C1	.	0.9
COC(=O)c1cnn(C(=O)c2ccccc2Br)c1N	-0.45	-2.1
Cn1c(=O)n(C)c2cc(CN3C(=O)c4ccccc4C3=O)ccc21	0.09	0.1
Cc1nc(SCC(N)=O)c2c(=O)n(C)c(=O)n(C)c2n1	-0.76	0.25
COc1cc(OC)c(NC(=O)Cn2c3ccccc3c(=O)c3ccccc32)cc1Cl	1.8	.
O=C(NC12CC3CC(CC(C3)C1)C2)C1CCCN1S(=O)(=O)c1ccccc1 (stereo not given)	0.04	-0.1
CC(=O)O/N=C(/N)c1cnn2c(C(F)(F)F)cc(C(F)(F)F)nc12	0.06	0.8
CC(CC(=O)O)CC(=O)N1CCN(c2ncnc3sccc23)CC1 (stereo not given)	0.46	.
CC(=O)NC1=NC(=O)/C(=C\c2ccc(Cl)cc2)S1	0.59	-0.4
Nc1[nH]nc(Nc2ccccc2)c1S(=O)(=O)c1ccccc1	-0.08	0.1
N#CCCSc1ccc(F)cc1	.	-1
CCOC(=O)c1cc(C#N)c(SCc2ccc(C#N)cc2)nc1C	.	0.15
Cc1cc(=O)[nH]c(SCC(=O)Nc2ccc(N3CCOCC3)c(Cl)c2)n1	.	-0.35
CC(NC(=O)CSc1nc2c(c(=O)n1C)C1=C(CCCC1)C2)c1ccccc1 (stereo not given)	0.3	-0.15
O=S(=O)(Nc1n[nH]c2cccc(Cl)c12)c1ccc(Cl)cc1	-0.065	0.85
CCCN1CCN(c2ccc(S(C)(=O)=O)cc2S(C)(=O)=O)CC1	.	1.1
CCCc1ccc(S(=O)(=O)N2CCN(Cc3ccc4c(c3)c3ccccc3n4CC)CC2)cc1	26	.
CCN1C(=O)/C(=C2\SC(=S)N(NC(=O)c3ccccc3)C2=O)c2ccccc21	0.3	1.1
CC(C)N/C=C1/C(=O)c2sccc2N(Cc2ccccc2)S1(=O)=O	12	-1.9
CCOc1ccc(NC(=O)C2C3C=CC4(CN(C(C(=O)OC)C(C)C)C(=O)C24)O3)cc1 (stereo not given)	-0.27	-1.1
O=C(O)c1ccc(-c2cc3ccccc3oc2=O)cc1	74	2.2
O=c1cc(O)c2c(=O)n(Cc3ccccc3)c3ccccc3c2o1	-0.29	-0.4

In another format: results already given.
canonical_smiles | Ba CapD inh | AID504770
CC(NC(=O)CSc1nc2c(c(=O)n1C)C1=C(CCCC1)C2)c1ccccc1 (stereo not given) | 0.3 | -0.15
O=S(=O)(Nc1n[nH]c2cccc(Cl)c12)c1ccc(Cl)cc1 | -0.065 | 0.85

Some of these compounds in order of number of heavy atoms, low to high:
SMILES	Ba CapD inh	AID504770
COc1ccc(-c2nc(N)sc2C)cc1	-0.29&0.75	-0.15&-0.6
O=C(COC(=O)c1ccc(Cl)nc1)NCc1ccccc1Cl	.	-0.4
O=C(COC(=O)Cc1n[nH]c(=O)c2ccccc12)NCC1CCCO1 (stereo not given)	.	-0.8
CCCc1ccc(S(=O)(=O)N2CCN(Cc3ccc4c(c3)c3ccccc3n4CC)CC2)cc1	26	.
COc1ccccc1NC(=O)Cn1cnc2sc(C(=O)N3CCN(c4ccccc4)CC3)c(C)c2c1=O	-0.3	.

The results go on.
SMILES	Ba CapD inh	AID504770
C=CCNC(=O)C1(O)c2ccccc2NC(=O)N1c1ccccc1 (stereo not given)	-0.14	0.4
O=C(Nc1cccc(-c2noc(-c3ccccc3)n2)c1)c1cccs1	-0.42	-0.25
Cc1cc(C)nc(NC2=NCC(=O)N2c2ccc(-c3ccccc3)cc2)n1	-0.47	.
O=C1CN(S(=O)(=O)c2ccccc2)CC(=O)N1CCc1ccccc1	i	1.7
C1Cc2nnc3c4c(nnc(c24)C1)CCC3	.	0.65
Cc1ccc(-c2noc(CCC(=O)N3CCCc4ccccc43)n2)cc1	-0.62	-0.05
CCN(CC)c1ccc(C2N(S(=O)(=O)c3ccc(C)cc3)CCN2S(=O)(=O)c2ccc(C)cc2)cc1	22	.
O=S(=O)(c1ccc(-c2cn3cc(Cl)ccc3n2)cc1)N1CCCCCC1	2.3	.
CC1CCN(C(c2nnnn2Cc2ccccc2)C(C)C)CC1 (stereo not given)	.	0.45
COC(=O)CN1C(=O)C(=Cc2ccc(N(C)C)cc2)SC1=S	-0.23	1
COC(=O)c1ccc(NC(=O)CSc2nccn2C)cc1	0.07	-0.5
O=C1c2ccc(-c3nc4ccc(Br)cc4c(=O)o3)cc2C(=O)N1C1CCCCC1	-0.31	0.95
N=C(N=C(N)N)N1CCCc2ccccc21	.	0.45
